RecA intein inh – inhibitors of M. tuberculosis RecA intein splicing; cell-free RecA intein splicing, fluorescence; AID 2221; P9WHJ3; inhibition, %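 (about 9 µM by stock and volumes)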; 290,000 tested, 0.75% active; in the data active means inhibition above about 30%; inconclusive means no clear call, values can overlap the other calls;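 further: 0% = vehicle wells and 100% = reference inhibitor control wells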
Target sequence (P9WHJ3 whole entry, looked up): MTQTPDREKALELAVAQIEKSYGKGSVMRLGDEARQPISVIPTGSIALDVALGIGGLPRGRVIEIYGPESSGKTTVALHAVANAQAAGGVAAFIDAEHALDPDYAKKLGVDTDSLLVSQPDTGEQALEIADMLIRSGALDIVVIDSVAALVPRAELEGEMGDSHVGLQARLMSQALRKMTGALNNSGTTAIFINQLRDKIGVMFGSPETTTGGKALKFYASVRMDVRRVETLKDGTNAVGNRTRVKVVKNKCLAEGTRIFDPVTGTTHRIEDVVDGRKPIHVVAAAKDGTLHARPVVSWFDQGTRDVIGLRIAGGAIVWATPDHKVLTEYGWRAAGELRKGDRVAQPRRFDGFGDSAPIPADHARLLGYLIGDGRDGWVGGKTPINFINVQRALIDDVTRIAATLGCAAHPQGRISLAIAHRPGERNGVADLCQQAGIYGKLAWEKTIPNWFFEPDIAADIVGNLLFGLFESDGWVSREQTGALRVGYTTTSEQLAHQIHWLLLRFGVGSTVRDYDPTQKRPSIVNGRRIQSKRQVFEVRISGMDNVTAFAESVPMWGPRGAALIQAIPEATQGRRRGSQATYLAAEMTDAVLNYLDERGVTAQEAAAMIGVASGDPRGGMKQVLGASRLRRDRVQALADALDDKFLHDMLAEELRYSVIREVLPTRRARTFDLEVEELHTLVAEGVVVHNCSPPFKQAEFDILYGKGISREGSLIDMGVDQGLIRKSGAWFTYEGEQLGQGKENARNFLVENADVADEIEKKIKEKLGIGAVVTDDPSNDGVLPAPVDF
Mtb betalactam – beta-lactam sensitization of Mtb H37Rv. M. tuberculosis H37Rv growth with meropenem, percent inhibition; hits of this screen are not shown here. inhibition, % at 25 µM. 330,000 tested, 0.27% active;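 active means about 74% or more and at least 40 points above the plate without the antibiotic, then above 30% in a dose series; inconclusive means first-round hits that could not be retested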;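 further: growth measured after seven days incubation then overnight dye step; 0% = bacteria only wells and 100% = bacteria with antibiotic; twin plates without the antibiotic show which effects depend on it; some results filed as inactive read as strong as hits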
Arbovirus anti – arbovirus infection inhibition; arbovirus infection cell-based antiviral screen; inhibition, % at 10 µM; 200,000 tested, 0.37% active;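 active means inhibition from about 30%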;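 further: bluetongue infection of BSR cells; cell survival read as ATP light after 72 h; 0% = infected wells without compound and 100% = uninfected wells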
Mtb growth – M. tuberculosis H37Rv growth inhibitors, H37Rv strain (AID 1626); M. tuberculosis H37Rv growth inhibition; higher % means a stronger effect; inhibition, % at 10 µM, or IC50 in µM where a hit was titrated; 220,000 tested, 0.95% active;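 active means confirmed in a dose series; inconclusive means inhibition above 80% but not taken into the dose series; inactive means below 80% or under 30% at every dose of the series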;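 further: bacteria incubated seven days before Alamar blue readout; 0% = bacteria only wells and 100% = bacteria with antibiotic wells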
YopH inh – blocks Yersinia enterocolitica YopH tyrosine phosphatase | 140,000 tested, 0.16% active | fluorescence Ex485/Em525 | inhibition, %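 (about 10 µM by stock and volumes)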;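 active means inhibition of 50% or more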;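 further: controls were vehicle for no effect and minimum signal wells for full effect; inactives centre near -20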
Arbovirus anti repeat – further read-out of Arbovirus anti, marked with its call; inhibition, %; measured here: 10K subset replicate screen; many hits read low in the repeat;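 first of two repeat runs on a subset; 0% = infected and 100% = uninfected wells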
Starred values were filed as active, the others as inactive; ? = inconclusive; . = no result given. An excerpt. The share of hits here may be higher or lower than overall.

SMILES	RecA intein inh	Mtb betalactam	Arbovirus anti	Mtb growth	YopH inh	others
NP(=O)(OCC(F)(F)F)Oc1cccc2ccccc12 (stereo unspecified)	0.2	-1	7	10%	-13
CCOC(=O)CSc1ccc(S(=O)(=O)N(CC)CC)cc1[N+](=O)[O-]	1.6	44	-1	18%	.
COc1ccc(NC(=S)N2CCC(Cc3ccccc3)CC2)cc1OC	5.5	-5	.	.	.
COc1ccccc1Nc1ccc(NS(=O)(=O)c2ccc(C(C)=O)cc2)cc1	1.3	5	.	.	.
c1ccc(CCNc2ncnc3nc[nH]c23)cc1	1.9	12	-1	13%	-4
CCOC(=O)c1ccc(S(=O)(=O)N2CCC(C(=O)O)CC2)cc1	-1.1	13	9	-7%	-24
COc1ccc(-c2csc(NC(=O)C3CC(=O)N(Cc4ccccc4)C3)n2)cc1OC (stereo unspecified)	3.9	85	.	.	.
Cc1ccc(C(=O)Nc2cccc(C(=O)NCc3ccccc3)c2)cc1	-0.1	-6	-28	0%	-33
COCCn1c(SCC(=O)Nc2nc(C)c(Cl)cc2Cl)nc2ccccc21	-0.9	1	-3	-2%	-47
Cn1nc(C(=O)N2CCN(S(=O)(=O)/C=C/c3ccccc3)CC2)c2ccccc2c1=O	-5.2	-4	15	-4%	-10
Cc1ccc(N(CC(=O)NCc2ccc3c(c2)OCO3)S(C)(=O)=O)cc1	.	5	7	-12%	-33
Cc1ccc(NC2=NC(c3ccccc3)n3c(nc(C)cc3=O)N2)cc1 (stereo unspecified)	0.7	-11	10	-4%	-22
CC(C)C(C)(C#N)NC(=O)CSc1ncnc2sc(-c3ccccc3)cc12 (stereo unspecified)	-2.8	3	7	4%	-4
CCOc1ccc(NC(=O)N(CCN2CCOCC2)Cc2ccc3c(c2)CCCN3CC)cc1	-6.0	-13	-7	4%	-16
ClCc1csc(-c2ccccc2Cl)n1	-0.2	57	18	12%	.
CCCCCCSc1ccc([C@H]2N[C@@](C)(C(=O)OC)[C@H]3C(=O)N(C)C(=O)[C@@H]23)cc1	6.3	6	.	.	.
Cc1ccc(/C=C/c2onc(C)c2S(=O)(=O)N2CCC(C(=O)N3CCN(C)CC3)CC2)cc1	-0.7	80	.	.	.
CC(C)CN(C(=O)COC(=O)CNC(=O)c1ccccc1F)c1c(N)n(Cc2ccccc2)c(=O)[nH]c1=O	2.4	-9	.	.	.
CCOC(=O)C1CCCN(S(=O)(=O)c2cn(C)c(=O)n(C)c2=O)C1 (stereo unspecified)	0.2	3	9	3%	-45
Cc1c(=O)n(OCc2ccccc2F)c2ccccc2[n+]1[O-]	0.5	-6	-1	5%	-22
Cc1ccc(OCCNS(=O)(=O)c2ccc(N3CCCC3=O)cc2)cc1C	-0.2	5	8	10%	17
O=S(=O)(c1cccc2nonc12)N1CCN(c2cccc(Cl)c2)CC1	2.3	4	2	7%	6
COc1ccc(Nc2nc(Cl)c(C=O)s2)cc1	20	-4	9	8%	.
O=C(CSc1nnc(NC(=O)c2cccc(Cl)c2)s1)NCC1CCCO1 (stereo unspecified)	3.8	?	.	.	.
Cc1ccc(/C=C(\C#N)C(=O)NC(C)C)o1	-1.8	-7	6	-4%	.
N/C(=N\OC(=O)C1CCCCC1)c1cccnc1	-0.6	-1	1	4%	-59
COc1cc2c(C(=O)NCCN(C)C)cn(CC(C)C)c(=O)c2cc1OC	8.5	4	.	-1%	.
O=C(c1ccccc1)N1CCSC1=S	-3.4	-2	6	-9%	-9
Cn1c(CN2CCOCC2)nnc1SCC(=O)Nc1cccc(C(F)(F)F)c1	-2.3	5	.	.	.
CCC(C)[C@H]1CN=C(N)N1CCc1cccc(F)c1 (stereo partly specified)	-0.4	-3	.	17%	.

Quoted from the listing (14 entries):
SMILES	RecA intein inh	Mtb betalactam	Arbovirus anti	Mtb growth	YopH inh	others
Cc1ccc(/C=C/c2onc(C)c2S(=O)(=O)N2CCC(C(=O)N3CCN(C)CC3)CC2)cc1	-0.7	80	.	.	.
CC(C)CN(C(=O)COC(=O)CNC(=O)c1ccccc1F)c1c(N)n(Cc2ccccc2)c(=O)[nH]c1=O	2.4	-9	.	.	.
CCOC(=O)C1CCCN(S(=O)(=O)c2cn(C)c(=O)n(C)c2=O)C1 (stereo unspecified)	0.2	3	9	3%	-45
Cc1c(=O)n(OCc2ccccc2F)c2ccccc2[n+]1[O-]	0.5	-6	-1	5%	-22
Cc1ccc(OCCNS(=O)(=O)c2ccc(N3CCCC3=O)cc2)cc1C	-0.2	5	8	10%	17
O=S(=O)(c1cccc2nonc12)N1CCN(c2cccc(Cl)c2)CC1	2.3	4	2	7%	6
COc1ccc(Nc2nc(Cl)c(C=O)s2)cc1	20	-4	9	8%	.
O=C(CSc1nnc(NC(=O)c2cccc(Cl)c2)s1)NCC1CCCO1 (stereo unspecified)	3.8	?	.	.	.
Cc1ccc(/C=C(\C#N)C(=O)NC(C)C)o1	-1.8	-7	6	-4%	.
N/C(=N\OC(=O)C1CCCCC1)c1cccnc1	-0.6	-1	1	4%	-59
COc1cc2c(C(=O)NCCN(C)C)cn(CC(C)C)c(=O)c2cc1OC	8.5	4	.	-1%	.
O=C(c1ccccc1)N1CCSC1=S	-3.4	-2	6	-9%	-9
Cn1c(CN2CCOCC2)nnc1SCC(=O)Nc1cccc(C(F)(F)F)c1	-2.3	5	.	.	.
CCC(C)[C@H]1CN=C(N)N1CCc1cccc(F)c1 (stereo partly specified)	-0.4	-3	.	17%	.

Following part
SMILES	RecA intein inh	Mtb betalactam	Arbovirus anti	Mtb growth	YopH inh	others
CCCOP(=O)(OCCC)C(Nc1ccc(C(C)C)cc1)c1ccc([N+](=O)[O-])cc1 (stereo unspecified)	7.2	0	-25	.	-9
Cc1cc(/C=N/Nc2ccc([N+](=O)[O-])cn2)c(C)n1-c1ccccc1	0.8	3	-4	6%	20
CCNc1ccc(C(=O)OCC(=O)N(Cc2ccccc2)C(C)(C)C)cc1[N+](=O)[O-]	2.1	3	-3	-3%	-27
COc1cc(-c2nnc(SCC3(c4ccc(Br)cc4)OCCO3)o2)cc(OC)c1OC	1.6	5	-10	7%	-30
CCCN1CCN(C2CCCCC2NS(=O)(=O)c2ccccc2)CC1 (stereo unspecified)	-7.7	-5	.	.	.
CC(=O)N/C(=C\c1ccccc1)C(=O)OCc1ccccc1	-2.6	-1	.	.	.
CC(C)CC(=O)Nc1nnc(S(=O)(=O)N2CCCCCC2)s1	-0.7	6	.	.	.
CC(C)(C)OC(=O)CC[C@@H](C(=O)N1CCN(C(=O)OC(C)(C)C)CC1)n1cc(C(CO)NC(=O)OC(C)(C)C)nn1 (stereo partly specified)	-0.8	-7	5	-3%	.
CC12CCC(=O)N1C(C(=O)Nc1nc(-c3ccc(F)c(F)c3)cs1)CS2 (stereo unspecified)	-1.3	-7	.	.	.
Cc1ccc2c(c1)C=CC(C#N)N2C(=O)c1ccccc1 (stereo unspecified)	9.0	-6	1	10%	-3
O=C(O)c1ccc2c(c1)ncn2C1CCCCC1	-1.8	1	-1	1%	-32
Cc1ccc(S(=O)(=O)Cn2nnnc2CN2CCOCC2)cc1	-0.8	9	6	-8%	-23
N#C/C(=C\c1ccc(Sc2ccc(Cl)cc2)o1)c1nc2ccccc2[nH]1	.	-1	-19	4%	-10
COC(=O)CCC(=O)NC1CC(C)(C)Cc2c1cnn2-c1ccccc1 (stereo unspecified)	2.3	-1	.	.	.
O=C(Cc1ccccc1)NN1C(=O)C2C3C=CC(C3)C2C1=O (stereo unspecified)	-0.4	1	2	-3%	-14
O=C(Cc1sc(-c2ccccc2Cl)nc1-c1ccccc1)Nc1ccccc1	-1.9	-7	-17	-14%	-25
C[C@H](NC(=O)c1ccco1)C(=O)Nc1ccc(S(=O)(=O)N2CCCC2)cc1	1.0	-10	-1	8%	-3
CN1CCN(S(=O)(=O)c2ccc(NC(=O)C3CCCCC3)cc2)CC1	0.4	-6	9	-3%	-10
O=C(N/N=C/c1ccc(Cl)cc1Cl)Nc1ccccc1	-1.8	10	-10	9%	-7
CCn1c(C)cc(/C=C2\SC(=O)N(CC(=O)Nc3ccc(C)c(C)c3)C2=O)c1C	-3.7	9	-10	-6%	8
COc1ccc(CCNC2=NCC(C)S2)cc1 (stereo unspecified)	-2.0	-4	-6	-4%	-17
CC(=O)N1CCN(c2nnc(-c3ccccc3)c3ccccc23)CC1	0.3	3	.	.	.
O=C(NC(=S)N(CCO)Cc1ccccc1)c1ccc(F)cc1Cl	-0.4	3	.	.	.
CCOC(=O)c1c(NC(=O)CSc2nc3cc(Cl)ccc3c(=O)n2Cc2ccco2)sc(C(=O)N(C)C)c1C	5.4	6	-19	-17%	-36
CCCCn1c(N)c(N(CCOC)C(=O)c2ccc(COc3ccccc3)o2)c(=O)[nH]c1=O	-0.2	-1	.	.	.
COc1cc(C(=O)NCCCc2ccccc2)cc(OC)c1OC	-1.4	0	.	.	.
C/C(=N/NC(=O)CN1CCN(S(=O)(=O)c2ccc(C)cc2)CC1)c1cccc(O)c1	0.1	-3	.	-6%	.
COc1ccc(Br)c(C(=O)NCCC(C)C)c1	-3.1	4	-1	5%	-1
CCOC(=O)N1CCN(C(=O)c2cc3c(-c4ccc(Cl)cc4)nn(C)c3s2)CC1	10	7	-5	19%	-46	Arbovirus anti repeat=-10
CC(=O)c1cccc(NS(=O)(=O)c2ccc3c(c2)N(C(C)=O)CCO3)c1	-5.4	0	.	.	.
C=CCn1c(O)c(C=Nc2ccc(OC)cc2C)c(=O)[nH]c1=O	-12	50	-1	29%	-55
CC(=O)c1ccc(NC(=O)c2ccc3snnc3c2)cc1	-1.6	2	.	.	.
CCCn1c(SCC(=O)N2CCCc3ccccc32)nc2c1c(=O)n(C)c(=O)n2C	.	-1	.	.	1
CN(C)S(=O)(=O)c1cc(C(=O)N2CCC(C(=O)O)(c3ccccc3)CC2)ccc1Cl	-0.4	5	.	.	.
COC(=O)C1=CN(Cc2cccs2)C=C(C(=O)OC)C1c1cccc(O)c1	-203	4	-9	-5%	.
O=c1[nH][nH]c(=O)n1-c1ccccc1	-2.9	0	1	0%	.
COc1ccc(-c2csc(NC(C)c3nc4cc(Cl)c(N5CCCCC5)cc4n3CCCO)n2)cc1 (stereo unspecified)	3.0	99	.	13µM*	.
Cc1cccc(-c2ncc(CN3CCCC(CO)(Cc4cccc(Cl)c4)C3)cn2)c1 (stereo unspecified)	14	8	-1	-5%	.
Cc1ccccc1NC(=O)CSCC(=O)Nc1ccccc1C	-1.2	14	-3	-1%	1
CCOC(=O)c1ccc(NC(=O)CC2SCCNC2=O)cc1 (stereo unspecified)	0.7	-11	2	-5%	-33
CCCNC(=O)c1onc(CSc2ccc(Cl)cc2)c1C(=O)NCCC(C)C	0.7	0	.	11%	.
CCN(CC)CCN1C(=O)C(=O)/C(=C(/O)c2ccc(OC(C)C)cc2)C1c1cccs1 (stereo unspecified)	0.6	-14	.	3%	.
CCOC(=O)c1ccc(CSC(=N)N)o1	-1.4	-4	.	-9%	.
Cc1c(Cl)cccc1NC(=O)C1CC2CCC1C2 (stereo unspecified)	1.6	14	.	.	.
Cc1cc(C2=NNC(=Nc3ccc(S(=O)(=O)N4CCOCC4)cc3)SC2)c(C)n1CC1CCCO1 (stereo unspecified)	-1.5	-3	-7	4%	.
CC1CCC(NC(=O)CC2Oc3ccccc3NC2=O)CC1 (stereo unspecified)	.	1	8	-8%	-28	Arbovirus anti repeat=-1
CSc1nc(C)c(CCO)c(=O)[nH]1	-0.2	-3	31*	-3%	.
Cc1cc(C)cc(OCC(=O)NN2Cc3ccccc3C2=N)c1	-2.4	-9	-6	-6%	-15
CCCSc1nc(NCc2ccco2)c2c3c(sc2n1)COC(C)(C)C3	15	12	1	1%	4
CC(C)c1ccc(NC(=O)C2CCC(CNC(=O)[C@@H]3Cc4ccccc4CN3)CC2)cc1 (stereo partly specified)	2.0	1	.	.	.
Following part:
SMILES	RecA intein inh	Mtb betalactam	Arbovirus anti	Mtb growth	YopH inh	others
COc1cccc(NS(=O)(=O)c2ccc(C)c(C(=O)N3CCCCC3)c2)c1	1.2	-1	.	.	.
CC(C)(C)c1ccc(OCC(=O)Nc2ccncc2)cc1	0.2	-2	.	.	.
Cc1cc(C)c(C)c(S(=O)(=O)N2CCN(c3ccccn3)CC2)c1C	0.5	-8	.	.	.
S=C(Nc1cccc(Cl)c1)NC1CCCCC1	1.6	83	19	22%	-21
CCOc1ccc(NC(=O)C2CC(C)=C(C)CC2C(=O)O)cc1 (stereo unspecified)	0.0	80	0	68%	-12	Arbovirus anti repeat=-2
Cc1cc(-c2ccccc2)nc(N/N=C/c2ccccc2F)n1	0.2	6	.	.	.

Screening results (PubChem)
